Source: PubChem BioAssay (National Center for Advancing Translational Sciences (NCATS))
Rango dissoc inh: prevents RanGTP from dissociating the Rango-importin beta complex | Biochemical FRET Rango-importin beta, RanGTP-induced dissociation | Potency, µM (highest dose often 46.1 µM), for the others: at the highest dose activity change, negative = inhibition | actives 0.071% (n = 340,000) | AID 540253; active means falling FRET ratio curve, often poorly fitted, with flat reads before Ran was added; inconclusive means other falling curves, or compound fluorescence or quenching; inactive means flat or rising ratio curve;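 note: potency is the fitted concentration of half-maximal effect; % of control where 0% means no effect; nearly all actives have a fitted effect of over 45% in size; -100% = wells without RanGTP and RCC1; the record marks most hits as doubtful in a second field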
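Recombinant Rango FRET biosensor (EYFP–snurportin 1 IBB–cerulean CFP10) at 0.1 uM premixed with 0.25 uM importin beta in PBS, 1 mM DTT, 0.02% Tween-20, 0.1% BSA. Compound added 5 min; RanGTP-RCC1 (0.6 uM Ran, 2 mM GTP, 0.2 uM RCC1) then triggers release, read at 45 min.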
Rango complex inh: Rango-importin beta binding inhibition; Q14974; Rango CFP/YFP FRET sensor + importin beta, 45 min; Potency, µM (series often up to 92.2 µM), without a hit: top-dose inhibition of complex formation; actives 0.031% (n = 340,000); AID 540263; active = rising FRET ratio curve, often small or poorly fitted; inconclusive = mostly compound fluorescence or quenching in the first reads; inactive = flat curves in all reads;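 note: potency is the fitted concentration of half-maximal effect; 0% = DMSO wells and 100% = buffer wells lacking importin beta; nearly all actives have a fitted effect of over 15% in size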
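FRET biosensor Rango (snurportin 1 IBB between N-terminal EYFP and C-terminal Cerulean), 50 nM in PBS/1 mM DTT/0.02% Tween-20/0.1% BSA, preincubated 5 min RT with compound; 0.125 microM importin beta added, 45 min RT, CFP/YFP FRET ratio read.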
GLA inh pH 4.5: alpha-galactosidase A (human) inhibition, pH 4.5. activity change, negative = inhibition, % at 105 µM. P06280. purified enzyme, 4-MU-alpha-Gal fluorescence, pH 4.5. 230,000 tested, under 10 active; inconclusive = small, poorly fitted or top-dose-only inhibition, or a rising curve; inactive = flat fitted curve, though single readings scatter; no compound was filed as active;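 note: 0% = full activity with enzyme and -100% = basal without enzyme; dose as in the result columns while the protocol names 77 µM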
Target sequence (P06280 whole entry, looked up): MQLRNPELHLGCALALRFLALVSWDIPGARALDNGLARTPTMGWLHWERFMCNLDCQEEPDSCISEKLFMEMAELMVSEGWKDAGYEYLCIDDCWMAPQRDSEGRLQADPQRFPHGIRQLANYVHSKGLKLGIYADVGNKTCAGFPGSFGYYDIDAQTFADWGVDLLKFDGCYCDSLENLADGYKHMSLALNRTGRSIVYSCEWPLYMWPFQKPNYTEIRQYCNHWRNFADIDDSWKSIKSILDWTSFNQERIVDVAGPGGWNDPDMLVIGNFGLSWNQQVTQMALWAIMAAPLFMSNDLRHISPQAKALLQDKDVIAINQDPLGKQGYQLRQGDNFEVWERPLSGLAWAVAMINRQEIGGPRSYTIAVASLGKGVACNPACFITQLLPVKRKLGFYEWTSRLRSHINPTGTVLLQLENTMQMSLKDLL
miR-21 FLuc: raises the signal of a miR-21 reporter. HeLa miR-21 FLuc reporter, luciferase, 48 h. Potency, µM (series often up to 38.3 µM), for the others: at the top dose reporter change, positive = more light. 340,000 tested, under 10 active. AID 2288; active = well fitted rising curve with a large enough effect; inconclusive = small, poorly fitted or top-dose-only effect; inactive = no such curve, though single readings can be large or run the other way;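 note: % of control where 0% means no effect; miR-21 action dims this reporter so a rising signal means less miR-21 action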
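HeLa miR-21-FLuc reporter line, endogenous miR-21; 2000 cells/well in DMEM/10% FBS; compound titration up to ~40uM final, 48 h, 37 degree Celsius; luciferase detection reagent, 15 min lysis, CCD luminescence.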
An asterisk follows results filed as active; u = inconclusive; x = not tested or not shown.

Letter code: A = Rango dissoc inh; B = Rango complex inh; C = GLA inh pH 4.5; D = miR-21 FLuc
CC(C)NS(=O)(=O)c1ccc(OCC(=O)Nc2ccc3c(c2)OCO3)cc1
  A = 7%	B = 1.1%	C = -16	D = 1%
Cc1c(Cl)cccc1N1C(=O)c2ccccc2C1=O
  A = 0%	B = 2.2%	C = -10	D = -5%
O=C(NC1CCCCCCC1)C1CCN(S(=O)(=O)N2CCCC2)CC1
  A = 8%	B = 2.4%	C = -4	D = -15%
CC(C)(CO)C(O)C(=O)NCCC#N (configuration not stated)
  A = -10%	B = -1.3%	C = 0	D = 4%
CCC(C)(C)NC(=O)C(c1ccc(OC)cc1)N(C(=O)CCC(=O)Nc1cc(C)on1)c1ccc2c(c1)OCCO2 (configuration not stated)
  A = -8%	B = -2.3%	C = x	D = -7%
COc1ccc(OC)c(S(=O)(=O)Nc2ccc(F)cc2)c1
  A = -14%	B = 2.1%	C = 6	D = -2%
CC(C)NC(=O)c1onc(CSc2nc3ccccc3[nH]2)c1C(=O)NC(C)C
  A = -2%	B = 0.8%	C = x	D = 0%
CCc1nnc(NC(=O)c2ncc(Cl)c(Cl)c2Cl)s1
  A = -4%	B = -0.9%	C = x	D = -18%
O=C(NCC1CCCO1)c1ccc(N2CCCCC2)c([N+](=O)[O-])c1 (configuration not stated)
  A = 6%	B = 2.4%	C = x	D = -31%
CCOC(=O)N1CCN(c2c(NCCOC)c(=O)c2=O)CC1
  A = 40%	B = -1.4%	C = -19	D = -1%
O=C(Nc1cccc(Br)c1)c1ccc2c(c1)SC1=NS(=O)(=O)CCN12
  A = -14%	B = -2.5%	C = x	D = x
Brc1ccc(-c2c(-c3ccsc3)sc3ccccc23)cn1
  A = -1%	B = -1.6%	C = x	D = x
O=S(=O)(Nc1ncccn1)c1ccc(Nc2ncnc3ccccc23)cc1
  A = -5%	B = -12%	C = -2	D = -1%
CC(C)Oc1ccc(C(=O)NCc2ccco2)cc1
  A = -2%	B = 0.8%	C = -4	D = -34%
CN1CCN(C(=O)C(=O)c2cn(CC(=O)N3CCCC3)c3ccccc23)CC1
  A = -14%	B = -0.5%	C = x	D = -1%
Cc1ccc(C(=O)N[C@H](C(=O)NC2CCCCC2)C(C)C)cc1
  A = 3%	B = -2.7%	C = x	D = x
Cc1nc2cncc(Br)c2n1C
  A = 14%	B = -3.9%	C = -5	D = -9%
CC(=O)Nc1ccc(NC(=O)COC(=O)CCNS(=O)(=O)c2c(Cl)cccc2Cl)cc1
  A = -5%	B = -1.5%	C = x	D = x
Nn1cnnc1SCC(=O)N1CCc2ccccc2C1
  A = 19%	B = 1.4%	C = x	D = x
O=C1N/C(=N\N=C\c2cccs2)SC1Cc1ccc(Cl)cc1Cl (configuration not stated)
  A = -12%	B = u	C = -8	D = 1%
Nc1n[nH]c(N)c1N=Nc1ccc(F)cc1
  A = 1%	B = 4.1%	C = -19	D = -15%
Cc1cc(NC(=O)CSc2c(C)[nH]c3ccccc23)no1
  A = 0%	B = -0.8%	C = -2	D = 2%
COc1ccccc1CNC(=O)C(=O)NCC1CCCO1 (configuration not stated)
  A = 1%	B = 0.4%	C = -14	D = -20%
O=c1[nH]nc(-c2ccc(NCCCO)c([N+](=O)[O-])c2)c2ccccc12
  A = -12%	B = 7.6%	C = x	D = -18%
O=C(COC(=O)CNC(=O)c1ccccc1)NC(=O)NC1CCCCC1
  A = -19%	B = 7.5%	C = x	D = x
CCSc1cc(N2CCOCC2)nc(-c2ccccc2)n1
  A = -6%	B = -0.1%	C = 3	D = -17%
CC(=O)c1ccc(Oc2nc3c(c(=O)n(C)c(=O)n3C)n2C)cc1
  A = 9%	B = 0.6%	C = 0	D = 10%
Cc1cc(NC(=O)Cn2nc(-c3cccs3)ccc2=O)cc(C)c1Br
  A = 3%	B = -0.7%	C = x	D = 4%
CCOC(=O)c1ccc(NC(=O)C2(c3ccc(Cl)cc3)CCCC2)cc1
  A = 0%	B = 0.4%	C = 0	D = -1%
Cc1ccc(C(=O)OCc2nc3ccccc3s2)o1
  A = -1%	B = 3.1%	C = x	D = x

Part of the list above in order of molecular weight, rising:
Letter code: A = Rango dissoc inh; B = Rango complex inh; C = GLA inh pH 4.5; D = miR-21 FLuc
Cc1ccc(C(=O)OCc2nc3ccccc3s2)o1
  A = -1%	B = 3.1%	C = x	D = x
Nn1cnnc1SCC(=O)N1CCc2ccccc2C1
  A = 19%	B = 1.4%	C = x	D = x
COc1ccccc1CNC(=O)C(=O)NCC1CCCO1 (configuration not stated)
  A = 1%	B = 0.4%	C = -14	D = -20%
CCSc1cc(N2CCOCC2)nc(-c2ccccc2)n1
  A = -6%	B = -0.1%	C = 3	D = -17%

(continued)
Letter code: A = Rango dissoc inh; B = Rango complex inh; C = GLA inh pH 4.5; D = miR-21 FLuc
COCCNc1nc2nonc2nc1NC(C)c1ccccc1Cl (configuration not stated)
  A = 11%	B = -2.4%	C = -7	D = -3%
CC(=O)Nc1cc(C(=O)N2CCc3ccccc3C2)ccc1Sc1ccc(F)cc1
  A = 25%	B = -2.5%	C = -4	D = -2%
Brc1cc2c(cc1/C=N/Nc1nc(N3CCOCC3)nc(N3CCOCC3)n1)OCO2
  A = 38%	B = 0.9%	C = -22	D = -10%
N#Cc1ccc(COC(=O)c2ccccn2)cc1
  A = x	B = x	C = 0	D = 1%
COc1cccc(/C=C/C(=O)N2CCN(c3n[nH]c(=O)[nH]c3=O)CC2)c1OC
  A = 24%	B = -4.0%	C = -2	D = -5%
Cc1ccccc1/C=N/n1c(-c2ccccn2)n[nH]c1=S
  A = 9%	B = 2.6%	C = -9	D = -3%
CCC(C)C(=O)Nc1nc2ccc(OC)cc2s1 (configuration not stated)
  A = -21%	B = -0.1%	C = -3	D = -42%
Cc1cccc(N2C(=O)CS/C2=N\NC(=O)c2cccnc2)c1C
  A = -15%	B = 1.4%	C = -4	D = 1%
CC(C)C(C(=O)NCc1ccco1)N(Cc1ccco1)C(=O)CNS(=O)(=O)c1ccccc1 (configuration not stated)
  A = 8%	B = -2.3%	C = x	D = -2%
Cn1c(=O)c2[nH]c(NCCCN3CCOCC3)nc2n(C)c1=O
  A = -23%	B = -0.5%	C = -5	D = 1%
CC1CCN(S(=O)(=O)c2cccc(C(=O)O)c2)CC1
  A = 1%	B = -0.2%	C = 9	D = -1%
COC(=O)NCC12CC3CC(C1)CC(CNC(=O)OC)(C3)C2
  A = 8%	B = 1.0%	C = 0	D = 2%
O=[N+]([O-])c1ccc(/C=N/n2c(CO)nc3ccccc32)s1
  A = -9%	B = 1.0%	C = -2	D = 12%
NC(=O)CC[C@@H]1NC(=O)C(Cc2ccc(O)cc2)NC(=O)c2cc([N+](=O)[O-])cc(F)c2NCCC[C@@H](C(N)=O)NC1=O (some centres not stated)
  A = x	B = x	C = -2	D = -9%
CCCN(CCC)CCNC(=O)CCC(=O)Nc1ccc2nc(N3CCOCC3)cc(C)c2c1
  A = -25%	B = u	C = x	D = -47%

Three compounds from above, sorted by the value under Rango complex inh, lowest first.
Structure,Rango complex inh
CC1CCN(S(=O)(=O)c2cccc(C(=O)O)c2)CC1,-0.2%
Brc1cc2c(cc1/C=N/Nc1nc(N3CCOCC3)nc(N3CCOCC3)n1)OCO2,0.9%
O=[N+]([O-])c1ccc(/C=N/n2c(CO)nc3ccccc32)s1,1.0%

Next section.
Letter code: A = Rango dissoc inh; B = Rango complex inh; C = GLA inh pH 4.5; D = miR-21 FLuc
CCOc1ccccc1C=Nc1ccccc1C(=O)Nc1ccccc1
  A = 5%	B = -0.7%	C = -1	D = -40%
Cc1ccccc1NS(=O)(=O)c1csc(C(N)=O)c1
  A = 1%	B = -1.8%	C = x	D = -2%
CCOc1ccc2nc(NC(NC(C)=O)(C(=O)OC)C(F)(F)F)sc2c1 (configuration not stated)
  A = -9%	B = 0.1%	C = -6	D = -14%
C/C(=N\NC(=O)c1c(Cl)c(C)nn1C)c1ccc(NC(=O)c2ccncc2)cc1
  A = 21%	B = u	C = 7	D = -5%
CC(=O)Nc1ccc(Nc2nc(-c3cc4ccccc4oc3=O)cs2)cc1
  A = -23%	B = u	C = x	D = -20%
CCOC(=O)N/N=C/c1cccc(Cl)c1Cl
  A = 7%	B = -0.9%	C = 0	D = -45%
Cc1cc(N/N=C/c2ccc3c(c2)OCO3)nc2ccccc12
  A = 4%	B = 0.4%	C = 3	D = -48%
CCOC(=O)c1sc2ncn(/N=C/N(C)C)c(=O)c2c1C
  A = 6%	B = 1.1%	C = -2	D = -11%
COc1ccc(N2C(=O)C3C4C=CC(CC4)C3C2=O)c([N+](=O)[O-])c1 (configuration not stated)
  A = 9%	B = -0.1%	C = -3	D = 1%
CCOC(=O)c1ccc(N=C2SC(C(=O)NC)CC(=O)N2Cc2ccc(F)cc2)cc1 (configuration not stated)
  A = 10%	B = 1.9%	C = -7	D = 3%
CC1CCCCN1S(=O)(=O)c1ccc(NC(=O)c2ccco2)cc1 (configuration not stated)
  A = -5%	B = 4.2%	C = 5	D = -15%
Cc1ccc(N(CC(N)=O)C2SC(=O)N(Cc3ccccc3)C2=O)cc1 (configuration not stated)
  A = -22%	B = 2.3%	C = -12	D = -12%
CC(C(=O)OCC(=O)Nc1cccc(S(=O)(=O)N2CCOCC2)c1)N1C(=O)c2ccccc2C1=O (configuration not stated)
  A = 14%	B = 1.0%	C = -3	D = -2%
O=C(c1ccc2c(c1)OCO2)N1CCN=C1SCc1cccnc1
  A = 0%	B = -3.9%	C = -1	D = -11%
O=C(Cn1cnc2c(cnn2-c2ccc(F)cc2)c1=O)N1CCN(c2ccccc2F)CC1
  A = -5%	B = -0.3%	C = 6	D = 0%
O=C(Nc1ccc(OCC(=O)N2CCOCC2)cc1)c1ccccc1Cl
  A = 14%	B = 2.6%	C = x	D = 17%
COC(=O)c1cc(-c2ccc(OC)cc2F)nc2nc(SC)[nH]c(=O)c12
  A = 9%	B = -3.0%	C = x	D = -10%
CC(C)(C)n1[nH]c2c3c(ccc2c1=O)C(=O)c1ccccc1C3=O
  A = 7%	B = 2.8%	C = -1	D = -23%
CCCCNC(=O)CSc1nc2ccccc2c(=O)n1Cc1ccc2c(c1)OCO2
  A = -11%	B = 1.6%	C = 4	D = -2%
O=C(CN1CCOCC1)NCC12CC3CC(CC(C3)C1)C2
  A = -1%	B = 0.2%	C = -7	D = -11%
COC(=O)CN1C(=O)N/C(=C/c2ccc(OC)cc2)C1=O
  A = 6%	B = -0.4%	C = -12	D = 0%
CCn1nc(C(=O)OC2CCOC2=O)c2ccccc2c1=O (configuration not stated)
  A = 3%	B = -0.8%	C = -4	D = -2%
NC(=O)COC(=O)c1cc(-c2cccs2)nn1-c1ccccc1
  A = 8%	B = 4.2%	C = -2	D = 5%
CC(Sc1nc(-c2ccccc2)cc(C(F)(F)F)n1)C(=O)NCc1ccco1 (configuration not stated)
  A = -10%	B = -0.2%	C = 2	D = 0%
CCCCC(=O)Nc1sc2c(c1C#N)CC(C)(C)OC2
  A = -8%	B = -3.8%	C = 3	D = -22%
C=CCn1c(=N)n(CC(O)COc2ccccc2OC)c2ccccc21 (configuration not stated)
  A = u	B = 7.8%	C = 5	D = 5%
Cc1ccc(NC(=O)CSc2nc3ccccc3c(=O)n2CCCN2CCCCC2)cc1C
  A = -5%	B = -3.1%	C = -9	D = 23%
Cc1ccccc1NS(=O)(=O)c1cc(C(=O)Nc2cccc(N(C)S(C)(=O)=O)c2)ccc1C
  A = 1%	B = -2.2%	C = -2	D = 16%

This is a subset. The share of hits here may be higher or lower than overall.
